RVFV N-RNA FP: inhibitors of RVFV nucleoprotein–RNA binding, primary screen, biochemical, fluorescence polarization. P21700. RVFV N-RNA binding; stronger effect = lower value. % bound, % (no concentration beside the values). actives 0.1% (n = 20,000). AID 651828, 2012;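 active = between 0 and 58% in either replicate with normal brightness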;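 note: 100 nL library stock added to about 12 µL; 100% = protein and probe without compound and 0% = probe alone; numbers are from one replicate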
Target sequence (P21700 whole entry, looked up): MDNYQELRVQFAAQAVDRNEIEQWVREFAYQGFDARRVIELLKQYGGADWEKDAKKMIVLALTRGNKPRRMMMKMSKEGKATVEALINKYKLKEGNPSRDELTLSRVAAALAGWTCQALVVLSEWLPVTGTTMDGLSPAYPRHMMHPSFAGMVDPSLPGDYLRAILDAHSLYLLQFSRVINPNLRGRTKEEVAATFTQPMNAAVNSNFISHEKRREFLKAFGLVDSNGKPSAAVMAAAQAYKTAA
An asterisk follows results filed as active; & = joins results of further samples. A portion of the library; rates above refer to the full screens.

Screening Cc1cc(=O)oc2cc(NC(=O)C3CCCC3)ccc12 returned RVFV N-RNA FP 107.
Cc1cccc(-c2noc(-c3ccccc3)n2)c1 was read as RVFV N-RNA FP 105.
Screening CC(Cc1ccc(O)cc1)NCC(O)c1cc(O)cc(O)c1 (configuration not stated) returned RVFV N-RNA FP 98.
`CN1C2CCCC1CC(NC(=O)c1nn(C)c3ccccc13)C2` (configuration not stated) gave RVFV N-RNA FP 96.
Screening CCCn1c(=NC(=O)C(C)(C)C)sc2cc3c(cc21)OCO3 returned RVFV N-RNA FP 95.
For CN1C(=O)C(=Cc2cc3c(cc2Cl)OCO3)C(=O)N(C)C1=S the results were RVFV N-RNA FP 98.
Screening COC(=O)c1cc(-c2cccs2)on1 returned RVFV N-RNA FP 97.
Screening CC1=C(C#N)C(NC(=O)c2ccncc2)(C(F)(F)F)C(=O)N1 (configuration not stated) returned RVFV N-RNA FP 97.
`CCCN(CCC)C(=O)CSc1ccc(C)cc1` gave RVFV N-RNA FP 98.
Screening S=c1[nH]nc(-c2ccccc2)n1CC1CCCO1 (configuration not stated) returned RVFV N-RNA FP 94.

Sorted by heavy-atom count (ascending): 4 of the compounds above
Screening COC(=O)c1cc(-c2cccs2)on1 returned RVFV N-RNA FP 97.
Cc1cccc(-c2noc(-c3ccccc3)n2)c1 was read as RVFV N-RNA FP 105.
Screening CCCn1c(=NC(=O)C(C)(C)C)sc2cc3c(cc21)OCO3 returned RVFV N-RNA FP 95.
`CN1C2CCCC1CC(NC(=O)c1nn(C)c3ccccc13)C2` (configuration not stated) gave RVFV N-RNA FP 96.

Later entries
For Cc1ccc(S(=O)(=O)c2nc(S(C)(=O)=O)sc2N(C)C)cc1 the results were RVFV N-RNA FP 96.
Cc1cc2occ(CC(=O)N(C)C)c2cc1Cl was read as RVFV N-RNA FP 93.
For Brc1ccc(CSc2ccc(-c3ccco3)nn2)cc1 the results were RVFV N-RNA FP 91.
For CSc1nnc(C)c(=O)n1COC(=O)COc1ccccc1 the results were RVFV N-RNA FP 85.
Screening Cc1ncc(CNC(=O)N(CCCl)N=O)c(N)n1 returned RVFV N-RNA FP 97.
`N#C/C(=C\N1CCC(C(F)(F)F)CC1)S(=O)(=O)c1ccccc1` gave RVFV N-RNA FP 94.
Screening CCN(CC)C(=O)c1sc(NC(=S)Nn2cnnc2)c(C(=O)OC)c1C returned RVFV N-RNA FP 90.
Screening O=P(O)(Cc1ccccc1)Cc1ccccc1 returned RVFV N-RNA FP 93.
Cc1cc(O)cc(=O)n1Cc1ccccc1 was read as RVFV N-RNA FP 92.
CCOC(=O)c1c(C)nn(-c2ncccc2NC(=O)c2ccccc2C(=O)O)c1C was read as RVFV N-RNA FP 93.
For O=C1Nc2ccc(Br)cc2C1Cc1ccco1 (configuration not stated) the results were RVFV N-RNA FP 82.
Oc1ccc(Nc2nc(-c3ccc(Cl)cc3)cs2)cc1 was read as RVFV N-RNA FP 100.
`CCN(CC)S(=O)(=O)c1ccc(C(=O)Nc2nc(-c3ccc4c(c3)OCO4)cs2)cc1` gave RVFV N-RNA FP 93.
Cc1sc(N)c(C(=O)c2cccc(C(F)(F)F)c2)c1C was read as RVFV N-RNA FP 96.
Screening Cc1ccc(-c2c(C)n([O-])c(C)c(C)[n+]2=O)cc1 returned RVFV N-RNA FP 104.
For COc1ccc(-c2nnc(SCc3cccc(C#N)c3)o2)cc1 the results were RVFV N-RNA FP 101.
Screening CCN(CC)CCn1c2c(c(SCC(=O)Nc3nc(C)cs3)nc1=O)CCCC2 returned RVFV N-RNA FP 96.
`Nc1ccc(S(=O)(=O)Nc2ccnn2-c2ccccc2)cc1` gave RVFV N-RNA FP 96.
For CCN(CC)CCSc1nc(CC(C)C)nc2c1c(=O)n(C)c(=O)n2C the results were RVFV N-RNA FP 98.
Screening N#CCSc1nc(-c2ccccc2)cc(=O)[nH]1 returned RVFV N-RNA FP 97.
Cn1c2ccccc2c2nnc(SCC(=O)c3ccc(Cl)cc3)nc21 was read as RVFV N-RNA FP 94.
`CCCCC1CC1C(=O)Nc1ncc2c(n1)CC(C)(C)CC2=O` (configuration not stated) gave RVFV N-RNA FP 93.
For FC(F)(F)c1cccc(NN=C2CCSCC2)n1 the results were RVFV N-RNA FP 95.
Cc1cn2c(=O)c(C(=O)NCCCc3ccccc3)cnc2s1 was read as RVFV N-RNA FP 87.
`CC1=C(C(=O)OC2CCCCC2)C(c2ccco2)C2=C(CC(c3ccc(F)cc3)CC2=O)N1` (configuration not stated) gave RVFV N-RNA FP 100.
For CC(C)(C)NCC(O)COc1cccc2[nH]c(=O)[nH]c12 (configuration not stated) the results were RVFV N-RNA FP 94.
`CC(=O)Nc1ccc(Nc2cc(C)c(C#N)c3nc4ccccc4n23)cc1` gave RVFV N-RNA FP 92.
O=C1/C(=C/c2ccsc2)CC/C1=C\c1cccs1 was read as RVFV N-RNA FP 93.
Screening Cc1ccc(S(=O)(=O)CCC(=O)Nc2ccc(S(N)(=O)=O)cc2)cc1 returned RVFV N-RNA FP 90.
CC(=O)N=c1sc(S(N)(=O)=O)nn1C was read as RVFV N-RNA FP 93.
CC1=CC(=C2C(=O)NC(=S)NC2=O)C=C(C)N1CC(C)C was read as RVFV N-RNA FP 94.
For Cc1nonc1OCC(C)(COc1nonc1C)NS(=O)(=O)c1ccccc1 the results were RVFV N-RNA FP 99.
CCCN1CCC[C@@H]2Cc3nc(N)ncc3C[C@H]21 was read as RVFV N-RNA FP 98.
Screening O=C(/C=C/c1ccco1)NCCc1csc2nc(-c3ccc(F)cc3)nn12 returned RVFV N-RNA FP 102.
`COc1cc(SC)ccc1C(=O)N1CCC(C(N)=O)CC1` gave RVFV N-RNA FP 91.
For CCCN(CCC)C(=O)c1c(C)[nH]c(C(=O)OCC)c1C the results were RVFV N-RNA FP 94.
Screening O=C(NCCc1nnc2ccc(SCC(=O)N3CCc4ccccc43)nn12)c1ccccc1 returned RVFV N-RNA FP 101.
Screening CCN(CC)CCCC(C)Nc1c2ccc(Cl)cc2nc2ccc(OC)cc12 (configuration not stated) returned RVFV N-RNA FP 34*.
CCc1ccc(Nc2nc(N)nc(-c3oc4ccccc4c3C)n2)cc1 was read as RVFV N-RNA FP 101.
O=C(O)c1ccccc1SCC(=O)N1CCOCC1 was read as RVFV N-RNA FP 98.
`N#Cc1ccc(-c2ccccc2)nc1SCCN1CCOCC1` gave RVFV N-RNA FP 96.
`CC1CNCCN1S(=O)(=O)c1cccc2cnccc12` (configuration not stated) gave RVFV N-RNA FP 94.
CCOC(=O)c1c(/N=C/N(C)C)sc2c1CCC2 was read as RVFV N-RNA FP 98.
For CN(C)C(=O)NC(c1ccccc1)c1ccccc1 the results were RVFV N-RNA FP 93.
For COc1ccc(/C(N)=N/OC(=O)Oc2ccccc2)cc1 the results were RVFV N-RNA FP 107.
`CCC1CSC(Nc2c(C)cccc2C)=N1` (configuration not stated) gave RVFV N-RNA FP 91.
For COc1cc(C(N)=O)cc(I)c1OC the results were RVFV N-RNA FP 100.
Screening Cc1ccccc1OCC(=O)N1CCN(C=O)CC1 returned RVFV N-RNA FP 86.
`CCn1c(CNC(=O)c2ccccc2F)nnc1SCC(=O)Nc1cccc(OC)c1` gave RVFV N-RNA FP 94.
Screening FC(F)(F)c1cccc(Nc2nc3ccccc3[nH]2)c1 returned RVFV N-RNA FP 98.

Among those listed so far, these contain a thiophene ring, fused or not:
Screening COC(=O)c1cc(-c2cccs2)on1 returned RVFV N-RNA FP 97.
Screening CCN(CC)C(=O)c1sc(NC(=S)Nn2cnnc2)c(C(=O)OC)c1C returned RVFV N-RNA FP 90.
Cc1sc(N)c(C(=O)c2cccc(C(F)(F)F)c2)c1C was read as RVFV N-RNA FP 96.
O=C1/C(=C/c2ccsc2)CC/C1=C\c1cccs1 was read as RVFV N-RNA FP 93.
CCOC(=O)c1c(/N=C/N(C)C)sc2c1CCC2 was read as RVFV N-RNA FP 98.

Next part.
Screening CC(=O)NN=C1CCCCCCC1 returned RVFV N-RNA FP 95.
For Cc1cnc(=O)[nH]c1SCC(=O)OCc1ccccc1 the results were RVFV N-RNA FP 89.
Screening Nc1nc(Cl)nc2c1ncn2[C@H]1C[C@H](O)[C@@H](CO)O1 returned RVFV N-RNA FP 96.
Clc1ccc2ncnc(-c3ccccc3)c2c1 was read as RVFV N-RNA FP 92.
For Cc1nc2ccc(N=NC3=C(O)CC(C)(C)CC3=O)cc2s1 the results were RVFV N-RNA FP 88.
For CC(C)C(NC(=O)CCc1ccccc1)C(C)C the results were RVFV N-RNA FP 101.
For COc1ccc2nc(NNC(=O)c3ccccc3)sc2c1 the results were RVFV N-RNA FP 100.
For COC(=O)c1ccc(/C=C(\C#N)C(N)=S)cc1 the results were RVFV N-RNA FP 98.
For Cc1cnn(C(=O)c2cc3ccccc3oc2=O)c1 the results were RVFV N-RNA FP 94.
`COC(=O)[C@H](c1ccccc1Cl)N1CCc2sccc2C1` gave RVFV N-RNA FP 100&100.
`CC1CN(c2ccccc2)c2nc3c(c(=O)n(C)c(=O)n3C)n2C1` (configuration not stated) gave RVFV N-RNA FP 100.
`CCCN(CCC)C(=S)Nc1ccccc1` gave RVFV N-RNA FP 90.
`C/C(=N\O)C(C)(C)Nc1ccc(Br)cc1` gave RVFV N-RNA FP 84.
Screening COc1ccc(C(=O)O/N=C(/N)C2COc3ccccc3O2)cc1 (configuration not stated) returned RVFV N-RNA FP 94.
For O=c1[nH]c(O)c(N=Nc2ccccc2)s1 the results were RVFV N-RNA FP 91.
For CCOC(=O)N1CCC2(CC1)Oc1ccccc1C1CC(c3ccccc3)=NN12 (configuration not stated) the results were RVFV N-RNA FP 94.
`C=CCN1C(=O)C2(C(C#N)=C(N)Oc3ccccc32)c2c1c1ccccc1oc2=O` (configuration not stated) gave RVFV N-RNA FP 93.
COc1ccccc1C(=O)Nc1ccon1 was read as RVFV N-RNA FP 98.
Screening Cc1cc(C(=O)Nc2nc(C34CC5CC(CC(C5)C3)C4)cs2)no1 returned RVFV N-RNA FP 97.
O=C(c1cc(-c2ccccc2)on1)N1CCN(c2ccccc2)CC1 was read as RVFV N-RNA FP 98.
COc1cc2ncnc(Nc3ccc(F)c(Cl)c3)c2cc1OCCCN1CCOCC1 was read as RVFV N-RNA FP 97.
Screening CCc1nnsc1C(=O)Nc1ccc(S(N)(=O)=O)cc1 returned RVFV N-RNA FP 95.
`CC1Cc2ccccc2N1C(=O)NC1CC(=O)N(c2ccccc2)C1` (configuration not stated) gave RVFV N-RNA FP 98.
CC(C)N(CCC#N)C(=O)Nc1ccc(C(C)(C)C)cc1 was read as RVFV N-RNA FP 101.
Screening Cc1occc1C(=O)C(C#N)=C1SCCCS1 returned RVFV N-RNA FP 98.
`CC(=O)/C(C)=N/O` gave RVFV N-RNA FP 107.
For CS/C(N)=N/N=C(\C)c1ccc(Br)cc1 the results were RVFV N-RNA FP 93.
Screening O=C1NCC2=C1C(c1ccccc1O)Nc1ccccc1N2 (configuration not stated) returned RVFV N-RNA FP 102.
`C/C(=C/c1ccccc1)C(=O)Nc1ccc(S(N)(=O)=O)cc1` gave RVFV N-RNA FP 92.
CCOC(=O)c1c(C)oc2c1c(C=NC1CC(C)(C)NC(C)(C)C1)c(O)c1ccccc12 was read as RVFV N-RNA FP 95.

Reprinted at random: 3 compounds from above, in no set order.
For CS/C(N)=N/N=C(\C)c1ccc(Br)cc1 the results were RVFV N-RNA FP 93.
Screening CCc1nnsc1C(=O)Nc1ccc(S(N)(=O)=O)cc1 returned RVFV N-RNA FP 95.
COc1cc2ncnc(Nc3ccc(F)c(Cl)c3)c2cc1OCCCN1CCOCC1 was read as RVFV N-RNA FP 97.

(more compounds)
CCOC(=O)c1cnn(C)c1NS(C)(=O)=O was read as RVFV N-RNA FP 96.
`CC(=O)Nc1c(Cl)c(Cl)c(NC(C)=O)c2n[nH]nc12` gave RVFV N-RNA FP 104.
Screening Cc1ccc2nc(-c3ccc(NC(=O)C(C)C)cc3)[nH]c2c1 returned RVFV N-RNA FP 98.
`C[C@H](NC(CCc1ccccc1)C(=O)O)C(=O)N1CCC[C@H]1C(=O)O` (some centres not stated) gave RVFV N-RNA FP 87&93&96.
`CCc1ccc(NC(=O)/C=C/c2ccco2)cc1` gave RVFV N-RNA FP 103.
`Cc1c(C(=O)Nc2ccc(S(N)(=O)=O)cc2)oc2ccccc12` gave RVFV N-RNA FP 100.
`CCCN1CCc2cccc3c2[C@H]1Cc1ccc(O)c(O)c1-3` gave RVFV N-RNA FP 88.
CCCCNC(=S)Nc1ccc(C)cc1 was read as RVFV N-RNA FP 104.
`Cc1cc(S(=O)(=O)N2CCN(C)CC2)c(C)cc1Cl` gave RVFV N-RNA FP 89.
`CS(=O)(=O)n1cc(C(=O)C(F)F)c2ccccc21` gave RVFV N-RNA FP 105.
`Cc1cccc(C#Cc2ccccc2)n1` gave RVFV N-RNA FP 102.
CC(C)Cn1c(CC(C)(C)C)nc2ccccc21 was read as RVFV N-RNA FP 100.
Screening c1c2c(cc3sc(N4CCCCC4)nc13)OCCO2 returned RVFV N-RNA FP 93.
Screening N[C@@H](Cc1ccc(O)c(O)c1)C(=O)O returned RVFV N-RNA FP 94&97.
CCCCN(CC)C(=O)c1ccc(Cl)c(Cl)c1 was read as RVFV N-RNA FP 102.
`COc1ccc(-c2[nH]ncc2Oc2ccccc2)c(O)c1` gave RVFV N-RNA FP 92.
For CC(=O)OCC(=O)NCCCOc1cccc(CN2CCCCC2)c1 the results were RVFV N-RNA FP 89&96&99.
Cc1oc(C)c(C(=O)Nc2ccc(CC(=O)O)cc2)c1C(=O)Nc1ccc(CC(=O)O)cc1 was read as RVFV N-RNA FP 107.
Screening CC(C)C(=O)N(c1ccc(Cl)cc1)C1C=CS(=O)(=O)C1 (configuration not stated) returned RVFV N-RNA FP 95.
For CC(Sc1nnc(-c2cc3ccccc3o2)n1-c1ccccc1)C(=O)O (configuration not stated) the results were RVFV N-RNA FP 95.
`O=S(=O)(/C=C/c1ccccc1)NNc1ccccc1` gave RVFV N-RNA FP 89.
Screening Cc1nc2ccccc2c(=O)n1CCO returned RVFV N-RNA FP 100.
`CN1C(=O)/C(=C/c2cn(CC(=O)N3CCCC3)c3ccccc23)C(=O)NC1=S` gave RVFV N-RNA FP 95.

Screens from PubChem.
